NPYLR7 agonist: activates Aedes aegypti NPYLR7 receptor; HEK293T NPYLR7/Galpha15, GCaMP6s calcium fluorescence; activation, % at 10 µM; 0.15% of 270,000 active; in the data active = activation above about 40%;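 also: 0% = vehicle and 100% = reference agonist at the receptor; some compounds past the cut are filed as inactive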
NPYLR7 agonist max-min: recorded beside NPYLR7 agonist, whose call it bears; activation, %; measured here: Max-Min RFU normalised activation; some inactives read as strong as hits;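 span of the calcium signal over five minutes; 0% = vehicle and 100% = native peptide agonist; compound fluorescence can raise it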
The depositor's hits bear a star; & = joins results of further samples. The list is partial. The share of hits here may be higher or lower than overall.

The opening 14 records, ahead of the listing:
1) Cc1cccc(NC(=O)N2CCC3(CC2)SCCN3C(=O)c2cccc([N+](=O)[O-])c2)c1C
2) CC(C)c1ccc(CC2(C)C(=O)Nc3cc(C(F)(F)F)ccc32)cc1 (stereo not drawn)
3) COCc1cc(=O)c2c(C)nn(-c3cccc(Cl)c3)c2[nH]1
4) O=C(CSc1nc(Cl)cc(N2CCN(C(=O)C3CCCC3)CC2)n1)NC(Cc1ccccc1)c1ccccc1 (stereo not drawn)
5) CN(C)C(=O)C(NC(=O)c1cc2c(s1)CCC2)c1ccccc1 (stereo not drawn)
6) Cc1cc(NC(=O)CN2CCN(C(=O)C34CC5CC(CC(C5)C3)C4)CC2)n(C)n1
7) COC(=O)c1ccc2c(c1)CCN2S(=O)(=O)c1cccc(C#N)c1
8) Cc1cccc(N2CCC(N3CCNC(C(=O)O)C3)CC2)c1C (stereo not drawn)
9) CCOC(=O)C1(Cc2cccc(Cl)c2)CCCN(C(=O)c2cccc(OC)c2OC)C1 (stereo not drawn)
10) COc1cc(Cl)ccc1OCc1cc(C(=O)N2CCCC(OC)C2)no1 (stereo not drawn)

Screen / compound no.	1	2	3	4	5	6	7	8	9	10
NPYLR7 agonist	-4	4	8	0	3	-2	8	6	-8	9
NPYLR7 agonist max-min	3	3	5	13	4	-5	6	-1	-13	-1

11) Cc1[nH][nH]c(=O)c1C(c1ccco1)c1c(C)[nH][nH]c1=O
12) O=C(Nc1ccc(-c2ccccc2)c(C(F)(F)F)c1)C(=O)N1CCCSCC1
13) COc1ccc(OC)c(Nc2nc3ccccc3n3nnnc23)c1
14) Cc1ccc(N2C(=O)CS(=O)(=O)C23C(=O)N(Cc2cccc(Cl)c2)c2ccccc23)cc1F (stereo not drawn)

Screen / compound no.	11	12	13	14
NPYLR7 agonist	10	0	0	-3
NPYLR7 agonist max-min	5	0	0	-9

Main list, previewed entries included:
1) Cc1cccc(NC(=O)N2CCC3(CC2)SCCN3C(=O)c2cccc([N+](=O)[O-])c2)c1C
2) CC(C)c1ccc(CC2(C)C(=O)Nc3cc(C(F)(F)F)ccc32)cc1 (stereo not drawn)
3) COCc1cc(=O)c2c(C)nn(-c3cccc(Cl)c3)c2[nH]1
4) O=C(CSc1nc(Cl)cc(N2CCN(C(=O)C3CCCC3)CC2)n1)NC(Cc1ccccc1)c1ccccc1 (stereo not drawn)
5) CN(C)C(=O)C(NC(=O)c1cc2c(s1)CCC2)c1ccccc1 (stereo not drawn)
6) Cc1cc(NC(=O)CN2CCN(C(=O)C34CC5CC(CC(C5)C3)C4)CC2)n(C)n1
7) COC(=O)c1ccc2c(c1)CCN2S(=O)(=O)c1cccc(C#N)c1
8) Cc1cccc(N2CCC(N3CCNC(C(=O)O)C3)CC2)c1C (stereo not drawn)

Screen / compound no.	1	2	3	4	5	6	7	8
NPYLR7 agonist	-4	4	8	0	3	-2	8	6
NPYLR7 agonist max-min	3	3	5	13	4	-5	6	-1

9) CCOC(=O)C1(Cc2cccc(Cl)c2)CCCN(C(=O)c2cccc(OC)c2OC)C1 (stereo not drawn)
10) COc1cc(Cl)ccc1OCc1cc(C(=O)N2CCCC(OC)C2)no1 (stereo not drawn)
11) Cc1[nH][nH]c(=O)c1C(c1ccco1)c1c(C)[nH][nH]c1=O
12) O=C(Nc1ccc(-c2ccccc2)c(C(F)(F)F)c1)C(=O)N1CCCSCC1
13) COc1ccc(OC)c(Nc2nc3ccccc3n3nnnc23)c1
14) Cc1ccc(N2C(=O)CS(=O)(=O)C23C(=O)N(Cc2cccc(Cl)c2)c2ccccc23)cc1F (stereo not drawn)
15) c1ccc(CSc2nnc3ccc(-c4ccccc4)nn23)cc1
16) CCn1c(C2CCCN(Cc3ccccc3C(=O)O)C2)n[nH]c1=O (stereo not drawn)

Screen / compound no.	9	10	11	12	13	14	15	16
NPYLR7 agonist	-8	9	10	0	0	-3	-15	0
NPYLR7 agonist max-min	-13	-1	5	0	0	-9	-6	1

17) CCc1nc2n(n1)C(=O)C(C(c1cccc(F)c1)N1CCC(C)CC1)S2 (stereo not drawn)
18) CCCCN(CC(=O)N1CCc2sccc2C1c1ccc(Cl)cc1)C(=O)CCl (stereo not drawn)
19) COc1ccccc1C(=O)N1CCCN(c2nc(Cc3ccc(C)cc3)nc3onc(-c4cccnc4)c23)CC1
20) O=C(NCC1CCCO1)c1ccc(NC2=C(Cl)C(=O)N(Cc3ccccc3)C2=O)cc1 (stereo not drawn)
21) COc1cccc(NC(=O)N2CCc3nc(Nc4cc(C)cc(C)c4)ncc3C2)c1
22) CS(=O)(=O)c1nc(C(=O)C(C#N)c2ccccn2)c2ccccn12 (stereo not drawn)
23) COC(=O)c1ccc(CNC(=O)c2cn(Cc3ccccc3Cl)nn2)cc1
24) CCOC(=O)c1ccc2c(c1)nc(SCc1cccc(Cl)c1)n2Cc1cccc(F)c1

Screen / compound no.	17	18	19	20	21	22	23	24
NPYLR7 agonist	-2	-4	9	-3	5	0	7	19
NPYLR7 agonist max-min	19	6	0	-9	3	-3	1	15

25) O=C(c1cccc(Cl)c1)N1CCCN(c2cn[nH]c(=O)c2Cl)CC1
26) CC1CCc2[nH]nc(C(=O)N3CCCn4nc(C(=O)NC5CC5)cc4C3)c2C1 (stereo not drawn)
27) CCC(NC(=O)NCCn1cc(C#N)cn1)c1cc(F)ccc1F (stereo not drawn)
28) N#Cc1c(-c2ccc3c(c2)OCO3)c2c([nH]c1=O)-c1ccccc1OC2
29) CC(=O)O[C@@H](C)C(=O)N1CCN(c2nc3nccc(-c4cccs4)n3n2)CC1
30) CC(=O)c1cc(CN2CCCC(N3CCN(c4cccc(Cl)c4)CC3)C2)cs1 (stereo not drawn)
31) COc1ccc(CCNC(=O)C(C2CCCC2)N2CCN(C(=O)c3ccc(F)cc3F)CC2)cc1 (stereo not drawn)
32) C[C@@H]1CC[C@@]2(OC1)OC1CC3C4CC=C5CC(O)CCC5(C)C4CCC3(C)C1[C@@H]2C (stereo partly drawn)

Screen / compound no.	25	26	27	28	29	30	31	32
NPYLR7 agonist	7	1	4	2	3	1	-7	1
NPYLR7 agonist max-min	2	-4	2	1	3	-1	-6	0

33) COc1ccc(C2c3cccn3-c3ccccc3N2C(=O)CN(C(=O)c2cc(OC)cc(OC)c2)C2CC2)cc1 (stereo not drawn)
34) CCCCNCC(=O)N(Cc1cccn1C)C1CC1
35) COc1ccc(NC(=O)N(CC(=O)Nc2cc(C(C)(C)C)nn2-c2ccccc2Cl)CC(C)C)cc1
36) Cc1ccc(-c2cc(C(=O)NC(C)Cc3cc(C)[nH]n3)[nH]n2)cc1 (stereo not drawn)
37) CC12CC3(C)C4(C)CC1(C)C1(C)C2(C)C3(C)C41C (stereo not drawn)
38) CCOC(=O)C1CCCN(CC(=O)N2N=C(c3ccc(C)cc3)CC2c2ccccc2F)C1 (stereo not drawn)
39) O=C(Cn1nnnc1CN1CCCCCC1)N1CCSCC1
40) CN1CCOc2ccc(NS(=O)(=O)CCN3C(=O)CCCC3=O)cc2C1=O

Screen / compound no.	33	34	35	36	37	38	39	40
NPYLR7 agonist	-4	-5	-6	2	1	-1	13	2
NPYLR7 agonist max-min	-2	-2	3	0	42	8	6	-1

41) C=CCn1c(CSc2ccccc2)nc2ccccc21
42) Clc1ccc(OCCSc2ncccn2)cc1
43) COC(=O)C1CC2CCCCC2N1S(=O)(=O)c1ccc(OC)c(NC(C)=O)c1 (stereo not drawn)
44) Cc1ccc(NC(=O)N2CCN(C(c3ccccc3)c3ccc(Cl)cc3)CC2)cc1F (stereo not drawn)
45) CC(C)Cc1nc(CN(C)C(=O)c2nn(C)c3c2CCCC3)no1
46) O=c1oc2ccccc2cc1-c1csc(N/N=C\c2ccccc2O)n1
47) CCc1ccccc1N1CCN(C(=O)CC(C)(C)C)C(C)C1=O (stereo not drawn)
48) CCN(CC)S(=O)(=O)c1ccc(N=Nc2sc(N)nc2C)cc1

Screen / compound no.	41	42	43	44	45	46	47	48
NPYLR7 agonist	1	0	19	8	10	-12	8	-14
NPYLR7 agonist max-min	-1	7	9	6	9	-21	21	-19

49) CCCCC1(C)NC(=O)N(Cc2ccc(S(=O)(=O)C(F)F)cc2)C1=O (stereo not drawn)
50) CC(NC(=O)CSCc1ccccc1Cl)c1nccs1 (stereo not drawn)
51) Cc1ccc(NC(=O)N2CCSC2c2cccc(F)c2)cc1Cl (stereo not drawn)
52) Cc1noc2c1/C(=N/O)CC(c1ccccc1)C2 (stereo not drawn)
53) CCCCN(CC(=O)N(CCc1c[nH]c2ccccc12)Cc1ccccc1)C(=O)COC
54) COc1cccc(C(=O)N(Cc2c(-c3ccccc3)noc2N2CCCCC2)CC2CC2)c1
55) CCCCCCC(=O)Nc1c(-c2ccccc2C)nc2ccc(C)cn12
56) Cc1nnc(C)n1-n1ccc2c(cnc3ncnn32)c1=O

Screen / compound no.	49	50	51	52	53	54	55	56
NPYLR7 agonist	7	14	4	4	11	7	-6	-2
NPYLR7 agonist max-min	2	9	7	8	17	7	2	3

57) COc1ccc(OC)c(NC(=O)C2(C)CCN2CCc2ccccc2)c1 (stereo not drawn)
58) O=C(N=c1sccn1C(C(=O)O)c1ccccc1)c1ccc(F)cc1 (stereo not drawn)
59) Cc1ccc(-c2nc(N3CCN(C(=O)Cc4ccc(F)cc4)CC3)c3ccc(Cl)cc3n2)cc1
60) O=C(Nc1cccc(Br)c1)Nc1ccc(N2CCCCC2)c(C(=O)N2CCCC2)c1
61) O=C(NCC1CCCCO1)c1ccc(CSc2ccccn2)cc1 (stereo not drawn)
62) C=CCN1C(=O)NC(c2ccccc2Cl)C2=C1CN(CC(=O)NCCCOC)C2=O (stereo not drawn)
63) Cc1ccc(-c2nn(C)c(=O)c3ccccc23)cc1CNC(=O)CSc1ncn[nH]1
64) Cc1ccc(C(=O)Nn2cnc3c(cnn3-c3ccc(C)c(C)c3)c2=O)cc1

Screen / compound no.	57	58	59	60	61	62	63	64
NPYLR7 agonist	7	24	19	-7	-1	1	-2	3
NPYLR7 agonist max-min	2	12	20	-3	-4	8	-2	-2

65) Cc1ccccc1CN1CCC(Nc2ccc(C#N)cn2)CC1
66) Cc1ccc(CNC(=O)c2cn(C)cc3c(=O)[nH]nc2-3)cc1
67) CCc1nc2n(n1)C(=O)C(C(c1cccc(F)c1)N1CCC(O)CC1)S2 (stereo not drawn)
68) O=C(c1cn[nH]n1)N1CCN(Cc2ccc3c(c2)OCO3)CC1
69) CC(N)=NCc1cccc(CN)c1
70) Cn1cnnc1-c1cc(Cl)ccc1Cl
71) CCCN1CCC(Cc2noc(Cn3[nH]c(=O)ccc3=O)n2)CC1
72) S=C(NC1CCSc2ccccc21)NC1CC2CCC1C2 (stereo not drawn)

Screen / compound no.	65	66	67	68	69	70	71	72
NPYLR7 agonist	8	1	0	10	4	1	13	-3
NPYLR7 agonist max-min	6	-1	-6	1	-30	-6	9	-4

73) Cc1csc(-c2coc3cc(OCC4OC(CO)C(O)C(O)C4O)ccc3c2=O)n1 (stereo not drawn)
74) O=c1[nH]c(CN2CCN(c3ccccc3F)CC2)nc2ccsc12
75) Cc1ccc(-c2nn(CN3CCN(S(=O)(=O)c4ccccc4Cl)CC3)c(=S)n2C)cc1
76) O=c1c2ccc(Cl)cc2nc(-c2ccc(F)cc2C(F)(F)F)n1Cc1ccccc1
77) CO/N=C(/C(=O)NCCc1cccs1)c1csc(NC=O)n1
78) Cc1oc(-c2cccs2)nc1CN(C)Cc1ccc2nonc2c1
79) CCOC(=O)C1(Cc2ccccc2C)CCCN(S(=O)(=O)N(C)C)C1 (stereo not drawn)
80) CC(=O)O[C@@H](C)C(=O)N1CCN(c2nccc(-c3ccc(-n4ccnc4)cc3)n2)CC1

Screen / compound no.	73	74	75	76	77	78	79	80
NPYLR7 agonist	2	-1	6	6	10	16	6&1	4
NPYLR7 agonist max-min	9	-5	5	3	8	4	0&-2	1

81) CCOc1ccc(-c2ccc(=O)n(CCNC(=O)Nc3cc(Cl)ccc3OC)n2)cc1
82) COCCn1c(C)cc(O)c(C(c2ccc(OC)c(OC)c2)N2CCC(C)CC2)c1=O (stereo not drawn)
83) COC(=O)C(Cc1ccccc1)NC(=O)C1CC=CCC1C(=O)N1CCC(C#N)(c2ccccc2)CC1 (stereo not drawn)
84) CCOc1cc(C2NC(=O)c3ccccc3N2)ccc1OC(C)C(=O)N(C)C (stereo not drawn)
85) COc1ccc(-c2cc(C(=O)NC(C)c3ccccc3)n3nc(C(C)(C)C)cc3n2)cc1 (stereo not drawn)
86) COC(=O)CCCS(=O)(=O)c1ccc(Br)cc1
87) O=C(CCn1c(=O)oc2ccccc21)Oc1ccccc1
88) CCN(Cc1ccccc1)S(=O)(=O)Nc1ccc(C(=O)N2CCCC2)cc1
89) CC(=O)Nc1ccc(NC(=O)CSc2nc3c(-c4ccccc4)c(C)nn3c(=O)[nH]2)cc1
90) Cc1cccc(NC(=O)C2CC2)c1-c1nc2ncccc2o1

Screen / compound no.	81	82	83	84	85	86	87	88	89	90
NPYLR7 agonist	-5	10	13	-2	8	14	-2	0	8	-10
NPYLR7 agonist max-min	-3	1	-7	-3	14	11	3	-2	-1	2

Screening data deposited in PubChem BioAssay by Fisher Drug Discovery Resource Center.
